Autofluor counter: flagged as autofluorescent in microsphere protease counterscreen. fluorescence intensity (test concentration not listed). AID 624483. compound autofluorescence counterscreen, microsphere flow cytometry; active compounds read high. hit rate 3.1% among 360,000;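 active = at least 3 SD above the mean of all compounds, about 16000 in these data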;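 note: 100 nL of 1 mM stock went into each well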
Numbers without * were called inactive. Some of the compounds tested (hit frequency here may not be typical).

canonical_smiles,Autofluor counter
CC(=O)Nc1cc(-c2ccccc2CN(C)C)cn2c(-c3ccc(F)c(Cl)c3)cnc12,2740
O=C(CNC(=O)N1CC(=O)Nc2ccccc21)Nc1ccc(Cl)cc1Cl,3622
CCOc1ccc(NC(=O)CN(C)C(=O)CCc2nc3ccccc3c(=O)[nH]2)cc1OCC,3449
CS(=O)(=O)c1ccc(-c2csc(C(O)(c3ccccc3)C(F)(F)F)n2)cc1 (stereo unspecified),3549
CCOC(=O)CC(S(=O)(=O)c1ccccc1)S(=O)(=O)c1ccccc1,3045
COc1cc2oc(=O)cc(CN3CCCC3)c2cc1Cl,5681
Cc1noc(C)c1S(=O)(=O)N(C)C[C@H]1OCc2cnnn2CCCC(=O)N([C@@H](C)CO)C[C@H]1C,3425
C[C@H](NC(=O)c1ncn2c1C(=O)N[C@@H](C)C2)c1ccccc1,4025
Cc1ccc(Cc2c(C3CCCCC3)nc3cc(C)c(Br)c(C)n23)cc1,5184
Cc1cccc(C(O)c2cnc(C)n2Cc2ccccc2)c1 (stereo unspecified),2862
O=C(Nc1ccccc1)c1cc(C2CCCCN2S(=O)(=O)c2ccccc2)on1 (stereo unspecified),3774
CC1C(=O)N(Cc2cn(CCC3OCCO3)nn2)CCS(=O)(=O)N1Cc1ccc(-c2cccc(N(C)C)c2)cc1 (stereo unspecified),3477
CN1OC[C@@H]2CN3C(=O)N(c4ccccc4)c4ccccc4[C@@H]3C[C@@H]21,4427
C[C@@H]1CN([C@H](C)CO)C(=O)CCCn2nncc2CO[C@H]1CN(C)C(=O)C1CCCCC1,4326
CC1(C(=O)NS(=O)(=O)c2ccc(F)cc2F)CCN1C(=O)C1(c2ccc(Cl)cc2)CCC1 (stereo unspecified),4026
C[C@@H]1CN([C@@H](C)CO)C(=O)CCCn2nncc2CO[C@@H]1CN(C)C(=O)Nc1ccc(N2CCCCC2)cc1,3872
Cc1cc(S(=O)(=O)Nc2ccc(C(=O)NCCN3CCOCC3)cc2)ccc1F,2960
CCn1c(SCC(=O)NC2CCCC2)nc2c(c1=O)SCC2,2975
CCCC1NC(=O)c2cccnc2-n2c1nc1ccc(Cl)cc1c2=O (stereo unspecified),3631
CCc1nc2c(OCc3ccccc3C(=O)OC)cccn2c1N(C)C(=O)c1cccs1,3407
Cc1cccc(C(=O)Nc2ccc(NC(=O)c3cccc(C)c3)cc2)c1,2871
CCOC(=O)C1(C)CCN1C(=O)c1cc(OC)ccc1Br (stereo unspecified),3614
COC(=O)c1cccc2c1C(=O)c1cc([N+](=O)[O-])ccc1-2,3979
CCCNC(=O)c1cc(C2CCCCN2C(=O)CCCc2ccccc2)on1 (stereo unspecified),3846
CC(C)(C)C1CCN2CCC[C@](c3ccccc3)(C1)[C@@]21CO1 (stereo partly specified),5815
CCNC(=O)N(C)c1c(CC)nc2ccc(C(=O)N3CCN(C(C)=O)CC3)cn12,3502
COc1cccc(Nc2nc(C(N)c3ccccc3)cs2)n1 (stereo unspecified),3768
CCOC(=O)[C@]12CCC=C1N(Cc1ccco1)C(=O)[C@H](CC(=O)NCc1ccc(OC)c(OC)c1)C2,5618
C[C@H](NC(=O)c1[nH]cnc1C(=O)N[C@@H](C)CO)c1ccccc1,4696
COc1ccc(NC(=O)CSc2nc3ccsc3c(=O)n2CCC(=O)O)cc1,3941

Single values from the results shown:
`CCNC(=O)N(C)c1c(CC)nc2ccc(C(=O)N3CCN(C(C)=O)CC3)cn12` in Autofluor counter is entered as 3502
`CCCC1NC(=O)c2cccnc2-n2c1nc1ccc(Cl)cc1c2=O` (stereo unspecified) in Autofluor counter is entered as 3631
`CCOC(=O)C1(C)CCN1C(=O)c1cc(OC)ccc1Br` (stereo unspecified) in Autofluor counter is entered as 3614

Next section.
canonical_smiles,Autofluor counter
ClCCn1c(CCl)nc2ccc(Cl)cc21,3754
C[C@]12CCC3C(CC[C@H]4C[C@@H](O)CC[C@]34C)C1=CC[C@@H]2O (stereo partly specified),3623
CC(C)CC1C(=O)N(Cc2cn(CCC3OCCCO3)nn2)CCS(=O)(=O)N1Cc1ccc(-c2ccc(Cl)cc2)cc1 (stereo unspecified),2845
Nc1ccn([C@@H]2O[C@H](CNC(=O)[C@@H](N)CSCc3ccccc3)[C@@H](O)[C@H]2O)c(=O)n1,3032
CN(C)C(=O)c1cnc(Cc2c[nH]c3ccccc23)c(I)c1,3659
COCCC(=O)N1CCOCC1c1cc(C(=O)Nc2ccccc2)no1 (stereo unspecified),3679
COCCNC(=O)C1CCCN(Cc2ccc(C)cc2)CC1 (stereo unspecified),3499
CC1CN(C(=O)COC(=O)/C=C/c2ccccc2)CC(C)O1 (stereo unspecified),3752
O=c1[nH]cc(C=NNc2ccccc2)c(=O)[nH]1,5595
Cc1ccccc1CN1C(=O)c2ccccc2C1c1nnnn1C(C)C (stereo unspecified),4088
O=C(c1cccc(-c2cccc3nccn23)c1)N1CCOCC1,3838
COCCn1c(SCC(=O)Nc2ccc(F)cc2F)nc2c(c1=O)SCC2,3659
CCN(CC)CCN(C)C(=O)c1[nH]c(C(F)(F)F)nc1-c1ccccc1,4548
O=C(CSc1ncccn1)N(Cc1cccnc1)C(CCc1ccccc1)c1nc2ccccc2[nH]1 (stereo unspecified),5661
C=CCC[C@H](CCCCC)OC(=O)/C=C/[C@H](O)[C@@H](O)C[C@@H](O)CC=C,4113
O=C(Nc1cccc2c1CCCC2)c1cc(C2CCCCN2C(=O)CCCc2ccccc2)on1 (stereo unspecified),3126
COC(=O)C1=C(c2ccc(OCc3ccccc3)cc2)C[C@@H]2CC[C@H]1N2C(=O)NCc1ccc(Cl)cc1,2830
C#Cc1cc(N2CCN(C(=O)c3ccoc3)CC2)n2nc(-c3cccc(Cl)c3)cc2n1,4217
CC1(C(=O)NS(=O)(=O)c2ccc(F)cc2F)CCN1C(=O)C1(c2ccc(Cl)cc2)CC1 (stereo unspecified),2950
COc1ccc(C(=O)N2CCCC(CO)C2)cc1OC1CCN(C(C)C)CC1 (stereo unspecified),3986
COc1cc2oc(=O)cc(CN3CCCCC3)c2cc1Cl,4308
Cn1cc(-c2coc3c(C(=O)NCc4cccs4)cccc23)cn1,3929
COc1cccc(NC(=O)Nc2nnc([C@H]3C[C@H](O)[C@@H](CO)O3)s2)c1,3794
COc1ccc(NC(=O)C2c3ccccc3OCC(=O)N2C2CC2)cc1 (stereo unspecified),5588
COCCNC(=O)C1(C)CCCN(C(=O)Cc2ccc3ccccc3c2)C1 (stereo unspecified),2937
O=C(NCc1cccc(F)c1)c1[nH]c(C(F)(F)F)nc1-c1ccccc1,5718
c1coc(CN2Cc3ccccc3-n3nncc3C2)c1,2880
CNC(C)C(=O)NC(C(=O)N1CCCC1C(=O)Nc1ccc2[nH]ccc2c1)C(C)C (stereo unspecified),3443
COc1ccc(-c2cc3c(c4c2ccn4C)C2CCC3C2)cc1OC (stereo unspecified),4059
Cc1ccc([C@H]2C[C@H](O)[C@@H](n3cc(C4CC4)nn3)CN2C(=O)C2CCCCC2)cc1,3731
CCCCn1nnnc1C(C1CC1)N1CCC2(CC1)C(=O)NCN2c1ccccc1 (stereo unspecified),5956
O=C(CS(=O)(=O)c1ccc(Cl)cc1)N1CCN(c2ccccc2)CC1,3975
COC(=O)C[C@@H]1C[C@@H]2c3cc(NC(=O)Cc4ccncc4)ccc3O[C@@H]2[C@@H](CO)O1,3060
CC(=O)Nc1ccc(S(=O)(=O)NCCc2ccc3c(c2)OCCO3)cc1,3855
CN(C)CCN1CCN(C(c2ccnc3ccccc23)c2nnnn2-c2ccc3c(c2)OCCO3)CC1 (stereo unspecified),4330
Cn1cc(-c2coc3c(C(=O)Nc4ccccc4)cccc23)cn1,2952
CCOC1CCCc2oc(-c3ccsc3)c(-c3cnc(OC)nc3)c21 (stereo unspecified),4257
CCc1nc2ccc(C(=O)NCCOc3ccc(OC)cc3)cn2c1N(C)C(=O)Cc1ccccc1,3924
O=C(NCc1ccco1)c1cccc2c1C(=O)c1ccc(N3CCC(N4CCCCC4)CC3)cc1S2(=O)=O,4867
NC(CCc1ccccc1)c1csc(Nc2ccccn2)n1 (stereo unspecified),3902
CC1(C(=O)Nc2ccc3c(c2)OCCO3)CCN1Cc1ccc2ccccc2c1 (stereo unspecified),3124
O=C(O)c1ccc(COc2ccc([N+](=O)[O-])cc2Cl)cc1,3534
CN(Cc1ccccc1)C(=O)[C@@H]1CCCN1C(=O)OC(C)(C)C,4505
CCOc1ccc(Cl)cc1-c1cc(C(=O)Nc2ccc(C(C)C)cc2)[nH]n1,3327
CC1CCCCC12NC(=O)N(CC(=O)Nc1cccnc1)C2=O (stereo unspecified),3459

An excerpt of these results, field by field:
CCc1nc2ccc(C(=O)NCCOc3ccc(OC)cc3)cn2c1N(C)C(=O)Cc1ccccc1
  Autofluor counter: 3924
O=C(NCc1ccco1)c1cccc2c1C(=O)c1ccc(N3CCC(N4CCCCC4)CC3)cc1S2(=O)=O
  Autofluor counter: 4867
NC(CCc1ccccc1)c1csc(Nc2ccccn2)n1 (stereo unspecified)
  Autofluor counter: 3902
CC1(C(=O)Nc2ccc3c(c2)OCCO3)CCN1Cc1ccc2ccccc2c1 (stereo unspecified)
  Autofluor counter: 3124

(more compounds)
canonical_smiles,Autofluor counter
C[C@H](CO)N1C[C@H](C)[C@H](CN(C)S(=O)(=O)c2cccc(C#N)c2)OCc2cnnn2CCCC1=O,3836
CCCS(=O)(=O)NC(=O)C1(C)CCCN(C(=O)c2cccc(C(F)(F)F)c2)C1 (stereo unspecified),4300
C[C@@H]1CN([C@H](C)CO)C(=O)CCCn2cc(nn2)CO[C@H]1CN(C)C(=O)c1cc(-c2ccccc2)on1,3563
CCc1nc2c(OCc3ccc(C(F)(F)F)cc3)cccn2c1N(C)C(=O)C1CC1,3538
Cn1ccc2c(N3CCCCC3)cc3c(c21)C1CCC3O1 (stereo unspecified),5483
COc1ccc(-c2coc3c(C(=O)NC(C)C)cccc23)c(C)c1,3850
COc1ccc2c(c1)CO[C@@]21O[C@H](CCO)C[C@H](O)[C@H]1O,5789
C[C@H]1CN([C@@H](C)CO)C(=O)CCCn2cc(nn2)CO[C@@H]1CN(C)C(=O)CCC(F)(F)F,3543
CC(C)C1Cc2[nH][nH]c(=O)c2C(C2CC2)O1 (stereo unspecified),6173
CCO/C(C)=N/Oc1cncnc1,6195
CCOC1=C2[C@H](c3ccccc3F)N(S(=O)(=O)c3ccc(C)cc3)C[C@H]2n2c(=O)n(-c3ccccc3)c(=O)n2C1,6126
COc1ccc(NC(=O)c2sc(=O)n(Cc3ccc(SC)cc3)c2C)cc1OC,5686
O=C(Nc1ccccn1)C1CCN(C(=O)c2ccc(Cl)cc2)CC1,3855
CCOC(=O)C1(C)CCCN(C(=O)c2ccccc2)C1 (stereo unspecified),3742
CCOC(=O)[C@]12CCCC=C1N(Cc1ccc(Cl)cc1Cl)C(=O)[C@H](CC(=O)N1CCN(C(=O)C3CC3)CC1)C2,6598
CN(Cc1cccc(-c2ccncc2)c1)C(=O)Oc1ccc([N+](=O)[O-])cc1,5967
CCCS(=O)(=O)NC(=O)C1(C)CCCN(C(=O)c2cncc(Br)c2)C1 (stereo unspecified),3382
CC(OC(=O)C1=COCCO1)C(=O)NC1CCCC(C)C1C (stereo unspecified),3597
C[C@H](CO)N1C[C@H](C)[C@H](CN(C)S(=O)(=O)c2ccccc2)OCc2cnnn2CCCC1=O,3017
C[C@H](NC(=O)c1ncn2c1C(=O)N[C@@H](C)C2)C(=O)OC(C)(C)C,2944
COc1ccc2c(c1)Cc1cc(NC(=O)c3ccccc3-c3ccccc3C(=O)O)ccc1-2,2873
CC1CCN(S(=O)(=O)c2ccc3c(c2)C(Cl)(Cl)C(=O)N3)CC1,3728
CCOC(=O)C1=CCC2C(=O)N(C3CCCCC3)C(=O)C12 (stereo unspecified),5534
CCc1nc2ccc(C(=O)N3CCCC(C(N)=O)C3)cn2c1N(CCC(C)C)CCN(C)C (stereo unspecified),4055
Cc1ccc(CN2C(=O)C(C)Oc3ccc(C)cc32)cc1 (stereo unspecified),3144
CC(C)S(=O)(=O)N1CCCC(c2cc(C(=O)Nc3ccc(F)c(Cl)c3)no2)C1 (stereo unspecified),3840
C(=C\c1ccccc1)/CN1CCN(C(c2cccs2)c2nnnn2C2CCCC2)CC1 (stereo unspecified),4421
CC(C)C[C@H]1CN(CCCC[C@H]2CNC(=O)C(=O)N2Cc2ccccc2)C(=O)C(=O)N1CCc1ccc(O)cc1,6150
C/C(=N\NC(=O)c1nnn(-c2nonc2N)c1CSc1ccc(C)cc1)c1cccnc1,3037
Cc1ccc(NC2CCCN(C(=O)c3nonc3C)C2)cc1C (stereo unspecified),2906

Among those listed so far, 3 contain a COOH group.
canonical_smiles,Autofluor counter
COc1ccc(NC(=O)CSc2nc3ccsc3c(=O)n2CCC(=O)O)cc1,3941
O=C(O)c1ccc(COc2ccc([N+](=O)[O-])cc2Cl)cc1,3534
COc1ccc2c(c1)Cc1cc(NC(=O)c3ccccc3-c3ccccc3C(=O)O)ccc1-2,2873

The listing continues.
canonical_smiles,Autofluor counter
CCc1nc2ccc(C(=O)NCCCn3ccnc3)cn2c1N(C)CCCc1ccccc1,4255
CCOC(=O)C1(C)CCN1C(=O)c1ccc(OC)c(F)c1 (stereo unspecified),4008
COc1cc(C)ccc1S(=O)(=O)NC(=O)C1(C)CCN1C(=O)Cc1ccccc1Cl (stereo unspecified),2959
Fc1cccc(Cc2c(-c3cccc(Br)c3)nc3ccc(Cl)cn23)c1,8105
COc1cccc(C=Cc2nccc3ccccc23)c1OC,3084

Assay outcomes (PubChem)
